Sa growth 42C = inhibitors of Staphylococcus aureus growth at 42 °C. S. aureus RN4220 growth, OD600, 20 h; hits give low values. relative growth, % (concentration not given with the values). 170,000 compounds, 0.53% hits;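 active = growth at 42 °C up to 50% and 20 or more points under that at 30 °C, or under 10% at both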;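 also: 300 nL library stock went into each well; scaled to the means of positive and negative controls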
HCMV NEC inh = cytomegalovirus nuclear egress complex inhibition | HTRF UL50-UL53 interaction, normalized percent inhibition | AID 1918969 | 190,000 compounds, 0.15% hits | inhibition, % (no concentration beside the values);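 active = both replicates at 50% or more, plus weaker picks with an unusually low signal ratio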;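 also: stock transfer was 100 nL into about 20 µL; 0% = negative control wells and 100% = wells with untagged competitor protein; inactives centre near -12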
GIV-Gai inh = GIV-Galpha-i interaction inhibition; percent of control (FP), % (no concentration beside the values); P08753; 210,000 compounds, 0.42% hits; Galpha-i3/FITC-GIV peptide fluorescence polarization, 90 min; hits give low values; scaled: aluminum fluoride 0%, vehicle 100%; AID 1224905;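 active = replicate mean at 85% of control or lower, very high polarization wells dropped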;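 also: wells of about 15 µL received 100 nL stock; the first replicate is given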
Target sequence (P08753 whole entry, looked up): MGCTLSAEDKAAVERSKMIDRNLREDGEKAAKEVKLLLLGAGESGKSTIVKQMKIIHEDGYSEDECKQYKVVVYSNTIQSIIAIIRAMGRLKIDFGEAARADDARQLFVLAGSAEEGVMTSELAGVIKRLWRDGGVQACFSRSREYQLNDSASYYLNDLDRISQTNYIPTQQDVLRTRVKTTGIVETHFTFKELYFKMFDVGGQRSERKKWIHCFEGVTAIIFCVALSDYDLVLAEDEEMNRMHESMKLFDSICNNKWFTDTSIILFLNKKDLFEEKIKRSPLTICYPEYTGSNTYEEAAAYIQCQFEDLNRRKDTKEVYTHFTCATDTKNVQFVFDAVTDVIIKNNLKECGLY
Sa growth 42C second temp = second read-out of Sa growth 42C, no call of its own (marks repeat the call); relative growth, %; measured here: growth at 30 °C;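 optical density after 20 h as mean of two plates; 100% = untreated growth and lower means inhibition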
* marks the source's active call; other numbers are inactive results; · = no result given; & = joins results of further samples.

SMILES	Sa growth 42C	Sa growth 42C second temp	HCMV NEC inh	GIV-Gai inh
c1ccc(-c2noc(-c3ccncc3)n2)cc1	·	·	-2	101
O=C(Cn1c(SCc2cccc(C(F)(F)F)c2)nc2ccncc21)NCCC1=CCCCC1	113	96	·	102
COc1ccc(N2CCN(C(CNS(=O)(=O)c3cccs3)c3cccnc3)CC2)cc1 (stereo unspecified)	103	87	-33	106
O=C(Cc1ccc(Cl)cc1)NCC(c1cccs1)S(=O)(=O)c1ccc(Cl)cc1 (stereo unspecified)	63	89	·	107
CCN1C(=O)c2ccccc2S(=O)c2ccc(C(=O)N3CCN(c4ccccc4)CC3)cc21 (stereo unspecified)	106	86	-25	102
O=C(CCSCc1ccc(Cl)cc1)N1CCN(c2ccccc2)CC1	114	88	·	104
CC(C)CCN=CC1=C(O)CC(c2ccccc2)CC1=O (stereo unspecified)	105	89	·	106
Cc1cc2nc(-c3ccc(Cl)nc3)[nH]c2cc1C	·	·	9	107
CCOc1ccccc1C1C(C#N)=C(N)Oc2n[nH]c(-c3cc(OC)c(OC)c(OC)c3)c21 (stereo unspecified)	·	·	-16	101
Cc1cc(C2=NNC(=NCC3CCCO3)SC2)c(C)n1-c1ccc(OC(F)F)cc1 (stereo unspecified)	104	91	-14	·
CCCCCn1c(CCCNC(=O)C(C)C)nc2ccccc21	·	·	-15	100
COC(=O)c1ccc(S(=O)(=O)NCc2ccco2)o1	99	96	-13	110
O=C(COC(=O)c1cc(Cl)nc(Cl)c1)NC(c1ccccc1)c1ccccc1	111	88	-9	·
COc1cc2c(cc1OC)CN(C(=O)CCc1ccccc1)CC2	94	91	-6	·
CCOc1ccccc1OC(=O)c1ccccc1	107	82	-12	105
O=C(O)CCC(=O)N1N=C(c2c(-c3ccccc3)c3cc(Br)ccc3[nH]c2=O)CC1c1ccc([N+](=O)[O-])cc1 (stereo unspecified)	·	·	-51	104
COc1ccc(Cc2nc3c4c5c(sc4ncn3n2)CCCC5)cc1OC	·	·	-19	104
Cc1ccccc1Nc1c(-c2ccc(N3CCOCC3)cc2)nc2ccc(Cl)cn12	97	91	10	103
COc1cccc(-c2csc(-c3c(N)c(C(=O)c4ccccc4)n4ccccc34)n2)c1	106	94	-3	103
CCCC(=O)N=C1SC2CS(=O)(=O)CC2N1Cc1ccccc1 (stereo unspecified)	87	75	-16	100
COc1ccc(-c2[nH]ncc2C(=O)NCCCc2ccccc2)cc1	84	93	·	107
CC(=O)Nc1ccc(C2C(C(N)=O)=C(C)Nc3ncnn32)cc1 (stereo unspecified)	·	·	-6	112
CC(=O)N(c1ccc(N(C(C)=O)S(=O)(=O)c2cccs2)cc1)S(=O)(=O)c1cccs1	90	78	-26	100
COCCOC(=O)c1c(C)oc2ccc(OC(=O)c3ccc(Br)cc3)cc12	·	·	6	106
O=C1CCCc2[nH]c(=O)c(C(=O)Nc3ccc(F)cc3)cc21	·	·	-26	122
Cc1ccc(Cn2c(CNC(=O)Cc3cccc(C)c3)nc3cccnc32)cc1	117	89	·	106
Cc1cc2c(cc1NC(=O)c1ccccc1C)n(C)c(=O)c(=O)n2C	82	90	·	103
CCOC(=O)c1c(NC(=O)c2nc(SCC)ncc2Cl)sc2c1CCCC2	108	91	-10	98
Cc1ccc(Cl)cc1NC(=O)Nc1c(C)n(C)n(-c2ccccc2)c1=O	105	108	17	102
COCCN1Cc2cccc(C(=O)Nc3ccc4nc(-c5cccnc5)[nH]c4c3)c2C1=O	91	88	-15	101

Reprinted from the part before: three compounds; new compounds follow.
SMILES	Sa growth 42C	Sa growth 42C second temp	HCMV NEC inh	GIV-Gai inh
CCOC(=O)c1c(NC(=O)c2nc(SCC)ncc2Cl)sc2c1CCCC2	108	91	-10	98
Cc1ccc(Cl)cc1NC(=O)Nc1c(C)n(C)n(-c2ccccc2)c1=O	105	108	17	102
COCCN1Cc2cccc(C(=O)Nc3ccc4nc(-c5cccnc5)[nH]c4c3)c2C1=O	91	88	-15	101
O=C(Cn1cnc2ccccc2c1=O)OCC(=O)c1c[nH]c2ccccc12	94	73	-21	·
COc1cc(OC)c(NC(=O)Cc2noc3ccc(C)cc23)cc1Cl	70	84	·	102
Oc1c(C2=NCCNC(C(F)(F)F)=C2)ccc2ccccc12	89	79	-70	111
COc1ccc2nc(N3CCCCC3)c(/C=C3\N=C(c4ccccc4)OC3=O)cc2c1	84	92	-20	·
Cc1nnc(NC(=O)CCCN2C(=O)/C(=C/c3cccs3)SC2=S)s1	102	104	-20	104
COc1ccc(CCNC(=O)CNCC2CCCO2)cc1OC (stereo unspecified)	98	91	2	100
Cc1nn(-c2ccccc2)c2sc(C(=O)N(Cc3ccco3)C(C)C(=O)NC3CCCCC3)cc12 (stereo unspecified)	110	125	9	102
O=C(COC(=O)c1ccc(Br)o1)NC12CC3CC(CC(C3)C1)C2	104	88	-10	·
Cc1ccc(NC(=O)Cn2c(=O)n(Cc3nc(C)no3)c(=O)c3cc4c(cc32)OCO4)c(Cl)c1	92	97	-5	105&110
Cc1cccc(NC(=O)c2cc3c([nH]c2=O)CC(c2ccccc2)CC3=O)c1 (stereo unspecified)	95	88	·	101
CCOC(=O)CNc1n[nH]c(=O)[nH]c1=O	110	89	-28	107
CC1C=CCC2C(=O)N(c3ccc(OC(=O)c4ccco4)cc3)C(=O)C12 (stereo unspecified)	103	91	-5	101
Cc1ccc(Cn2c(=O)c(N3CCCC(C(=O)NCc4ccc(Cl)cc4)C3)nc3ccccc32)cc1 (stereo unspecified)	·	·	-16	103
COc1ccccc1CNC(=O)c1cc2sccc2n1Cc1ccc(F)cc1	94	91	20	100
O=C(NCc1ccccc1Cl)c1ccccc1	93	83	-14	·

One compound at a time (already shown). Values in the order: Sa growth 42C | Sa growth 42C second temp | HCMV NEC inh | GIV-Gai inh
CC1C=CCC2C(=O)N(c3ccc(OC(=O)c4ccco4)cc3)C(=O)C12 (stereo unspecified) across the screens: 103 | 91 | -5 | 101
Cc1ccc(NC(=O)Cn2c(=O)n(Cc3nc(C)no3)c(=O)c3cc4c(cc32)OCO4)c(Cl)c1 across the screens: 92 | 97 | -5 | 105&110
COc1cc(OC)c(NC(=O)Cc2noc3ccc(C)cc23)cc1Cl across the screens: 70 | 84 | · | 102
Cc1cccc(NC(=O)c2cc3c([nH]c2=O)CC(c2ccccc2)CC3=O)c1 (stereo unspecified) across the screens: 95 | 88 | · | 101
CCOC(=O)CNc1n[nH]c(=O)[nH]c1=O across the screens: 110 | 89 | -28 | 107

(further entries)
SMILES	Sa growth 42C	Sa growth 42C second temp	HCMV NEC inh	GIV-Gai inh
CCC(=O)c1ccc(Cl)c(Cl)c1	102	96	2	·
O=C(Cn1c(=O)n2nc(-c3cccc(F)c3)nc2c2ccccc21)N1CCN(c2ccc(F)cc2)CC1	107	99	·	103
COc1ccc(Nc2ccc3nnc(-c4ccc(Br)cc4)n3n2)cc1	79	88	·	107
CCN(C(=O)CCc1ccccc1)c1ccccc1	113	108	-10	·
O=c1[nH]c2ccc(S(=O)(=O)NCc3cccnc3)cc2[nH]1	107	87	-23	101
COc1cc(OC)c(NC(=O)Cn2nc(C)c3c(C)n(-c4ccccc4)nc3c2=O)cc1Cl	102	91	-39&-1	107&104
CCOc1ccc(CN(C)C(=O)CNC(=O)c2ccc(Br)o2)cc1OC	100	89	0	·
O=C(O)CCC1NCC(Cn2c3ccccc3c3ccccc32)OC1=O (stereo unspecified)	92	90	-3	103
COCCNC(=O)C(=O)Nc1ccc2nc3n(c(=O)c2c1)CCCCC3	104	93	-16	104
O=C(/C=C/c1ccc(Cl)cc1)Nc1nnc(C2CC2)s1	85	91	-4	·
CCOc1ccccc1N(C)C(=O)c1cc2cc3ccc(OC)cc3nc2s1	91	90	·	101
CC(C)(C)C1CCC(=NNC(=O)c2ccccc2O)CC1 (stereo unspecified)	90	87	-14	102
CCc1nc2ccccc2n1CCCCOc1cccc(C)c1	91	69	-4	105
O=C1c2ccccc2C2N1c1ccccc1S(=O)(=O)N2Cc1ccccc1 (stereo unspecified)	107	93	-7	·
COc1ccc(CN(Cc2cccs2)C(=O)c2ccc(C)o2)cc1OC	111	93	-8	·

Compounds from the list above that contain a COOH group, in the order listed:
SMILES	Sa growth 42C	Sa growth 42C second temp	HCMV NEC inh	GIV-Gai inh
O=C(O)CCC(=O)N1N=C(c2c(-c3ccccc3)c3cc(Br)ccc3[nH]c2=O)CC1c1ccc([N+](=O)[O-])cc1 (stereo unspecified)	·	·	-51	104
O=C(O)CCC1NCC(Cn2c3ccccc3c3ccccc32)OC1=O (stereo unspecified)	92	90	-3	103

(list continues)
SMILES	Sa growth 42C	Sa growth 42C second temp	HCMV NEC inh	GIV-Gai inh
Cc1cccc(OCC(=O)OCCN2CCCC2=O)c1	105	99	11	·
CCC(CC)NC(=O)c1cc(=O)[nH]c2ccccc12	96	92	-8	·
CCOC(=O)C1CCN(S(=O)(=O)c2ccc(N3CCCCS3(=O)=O)cc2)CC1	96	90	·	99
CCCCCCN1C=CC(=C2C(=O)c3ccccc3C2=O)C=C1	93	90	-26	99
CCOC(=O)NC1(/N=C(/Nc2ccccc2)N2CCOCC2)Oc2ccccc2O1	88	86	-16	·
O=C(NCCc1ccccc1)c1ccc(-c2ccccc2)cc1	110	95	-11	·
O=S(=O)(c1ccccc1F)N1CCC2(CC1)Nc1ccccc1-n1cccc12	·	·	7	99
COC(=O)c1ccccc1NC(=O)CCCS(=O)(=O)c1nc(-c2ccccc2OC)cc(C(F)(F)F)n1	103	86	-15	102
COc1ccc(C(=O)CSc2nc3c(cc2C#N)CCCC3)cc1	90	89	-6	·
CCOc1cccc(CC(=O)NCc2ccc3c(c2)CCN3C(=O)c2cccc(C)c2)c1OCC	91	84	-18	100
Cc1c2cnn(-c3ccccc3)c(=O)c2c(C)n1CCCC(=O)NC(C)(C)C	102	84	-14	106
CS(=O)(=O)N1CC(=O)Nc2ccccc21	85	86	·	104
Cc1cc2n(n1)CCC(=O)N2Cc1ccc(C(=O)Nc2ccc(Br)c(C)c2)cc1	76	64	·	95
Cc1ccc(OCc2nc(N)nc(N(C)C)n2)cc1C	99	94	-3	·
CCOc1ccc(-n2nc(CO)c(C(=O)NCc3ccccn3)n2)cc1	108	79	8	103
Clc1cccc(-c2cc(-c3nc(-c4ccccc4)no3)[nH]n2)c1	·	·	-20	104
C=CCn1c(SCc2nnc(-c3cccs3)o2)nc2scc(C3CC3)c2c1=O	89	95	-6	·
O=C(NCc1ccccc1)C1CCN(S(=O)(=O)Cc2ccccc2)CC1	93	94	-3	101
Cc1ccc2oc(=O)n(CC(C)C)c2c1	97	81	·	101
CCC(CC)C(=O)Nc1ccc2nc(SCC(=O)N3CCCC3)sc2c1	101	95	0&-19	105&97
COc1ccccc1OCC(=O)NC1CC(=O)N(c2ccc3c(c2)OCCO3)C1 (stereo unspecified)	87	90	·	101&103
O=C(O)CCSC1CC(=O)N(c2ccccc2)C1=O (stereo unspecified)	93	105	4	106
CCc1ccc(NC(=O)CN2CCN(Cc3ccccc3)S2(=O)=O)cc1	73	92	·	99
Cc1ccccc1Nc1c(-c2ccncc2)nc2ccc(Cl)cn12	103	90	5	108
COc1cccc2c(C)cc3nnc(SCC(=O)Nc4ccc(C)cc4)n3c12	95	87	-28	102
COCCNC(=O)CSc1nc(-c2ccccc2)[nH]c1-c1ccc(C)cc1	103	90	0	101
Cn1c(CNC(=O)Cc2cccnc2)nnc1SCc1ccccc1	94	101	21	104
COc1ccc(-n2c(=O)c3ccccc3n(Cc3ccccc3Cl)c2=O)cc1	89	91	11	107
COc1ccc(-c2nn3c(NC4CCCCC4)cc(C)nc3c2C)cc1OC	·	·	-20	105
CCn1c(-c2ccc3c(c2)OCCO3)cnc1SCc1cc(=O)n2ccsc2n1	98	93	-24	·
CC(C)c1ccc(NC(=O)CSc2ncnc(N)n2)cc1	94	86	-2	109
CCOc1ccc2c(c1)cc(C(=O)NCCOc1ccc(Cl)cc1)n2C	·	·	-1	102
CNC(=O)C1CCN(c2nnc(-n3c(C)ccc3C)s2)CC1	106	94	·	108
C=CCOc1c(Br)cc(Br)cc1/C=C1\NC(=S)NC1=O	·	·	-22	107
COc1ccc(Cn2c(=O)c3oc4ccccc4c3n(CC(=O)Nc3ccccc3)c2=O)cc1	88	90	-28	103
Cc1ccc(C)c(-c2csc3c(=O)[nH]cnc23)c1	·	·	4	106
COc1ccc(-c2nc3scc(CCNC(=O)c4cc(OC)cc(OC)c4)n3n2)cc1	112	93	·	105
CCOC(=O)Nc1c(C(=O)OCC)[nH]c2ccc(OC)cc12	·	·	-25	115
COc1ccc(OC)c(CNC(=O)C2CCCN(S(=O)(=O)N3CC(C)CC(C)C3)C2)c1 (stereo unspecified)	117	88	·	103
CCOC(=O)/C(=N\Nc1ccccc1Cl)N(C)C1CCN(C)CC1	107	104	0	·
COc1cc(C2C(C#N)=C(C)NC3=C2C(=O)CCC3)ccc1OCc1ccccc1 (stereo unspecified)	106	87	-30	98
O=C1/C(=C/c2cccnc2)CS/C1=C\c1cccnc1	75	51	·	113
CCOc1ccc(N2CC(c3nc4ccccc4n3CC(C)C)CC2=O)cc1 (stereo unspecified)	112	85	-26	102
Cn1c(=O)c(=O)n(C)c2cc(NS(=O)(=O)c3ccc(Br)cc3)c(Cl)cc21	97	85	-10	99
COc1ccccc1C(=O)COC(=O)CCC1CCCC1	84	100	3	·
Cc1ccc2nc(-c3ccsc3)c(Nc3ccccc3C)n2c1	122	97	-6	103
CCCCNC(=O)CCn1c(=O)c2ccccc2n(Cc2cccc(Cl)c2)c1=O	110	77	-32	102
